Menin MLL FP FL: qHTS Assay for Inhibitors Targeting the Menin-MLL Interaction in MLL Related Leukemias: Competition With Fluorescein Labeled MLL-derived Peptide; Fluorescence polarization, fluorescein-MLL peptide displacement from menin; FP activity change, % at 61.4 µM; 290,000 tested, under 10 active; inconclusive = falling polarisation curve, or a change in total fluorescence; inactive = total fluorescence flat and polarisation flat or rising; no compound was filed as active; the % refers to the polarisation; negative = inhibition;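 note: % of control where 0% means no effect; inhibitors lower the polarisation; unlabelled MLL peptide was the positive control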
gsp ag: qHTS for Agonist of gsp, the Etiologic Mutation Responsible for Fibrous Dysplasia/McCune-Albright Syndrome: qHTS; Potency, µM (highest dose often 76.9 µM), for the others: at the highest dose activation (cAMP increase), actives largely listed as activators; 0.13% of 340,000 active; gsp mutant cells, cAMP HTRF, 30 min; control for the full effect not named in the record; active = well fitted activation curve with a large enough effect; inconclusive = small, poorly fitted or top-dose-only effect, or another doubt; inactive = no such curve, though single readings can be large or run the other way; cell line not stated here;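 note: phosphodiesterase inhibitor Ro 20-1724 added with compounds to block cAMP breakdown; potency is the fitted concentration of half-maximal effect; nearly all actives have a fitted effect of over 60% in size; about a fifth of the inactives were tested at one dose only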
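Cells in DMEM/10% FBS with G418 were pretreated with compounds in DMSO plus […] (300 uM stock) for 30 min at 37C. cAMP was measured by HTRF (cAMP-d2 plus anti-cAMP antibody-K) after 30 min at room temperature.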
gsp antag: qHTS for Antagonists of gsp, the Etiologic Mutation Responsible for Fibrous Dysplasia/McCune-Albright Syndrome: qHTS. gsp-mutant cells, cAMP HTRF, 30 min; control for the full effect not named in the record. AID 624288, 2012. Potency, µM (titrated, usually from 76.9 µM), for inactives: top-dose activity change, negative = inhibition, actives largely listed as inhibitors. 0.4% of 340,000 active; active = falling curve of any shape with a large fitted effect; inconclusive = falling curve, mostly with a smaller effect; inactive = flat or rising curve; cell line not stated here;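 note: intracellular cAMP measured with PDE inhibitor Ro 20-1724 present during compound exposure; potency is the fitted concentration of half-maximal effect; % is set by controls: 0 for no effect and ±100 for the full control effect; nearly all actives have a fitted effect of over 65% in size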
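Cells, 2000/well, grown 16–24 h in DMEM 10% FBS with 0.5 mg/ml G418, then compounds plus […] (300 uM addition stock), 30 min at 37C. cAMP read by HTRF (cAMP-d2 and anti-cAMP antibody-K in lysis buffer) after 30 min RT.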
ClpP mod: qHTS Assay for Activators of ClpP | ATP-dependent Clp protease proteolytic subunit (Bacillus subtilis (strain 168)), P80244 | purified B. subtilis ClpP, FRET peptide cleavage, 20 min | Potency, µM (highest dose often 57.5 µM), for inactives: at the highest dose activity change, negative = active | 1.9% of 340,000 active | AID 651965, 2013; active = well fitted falling curve with a large enough effect; inconclusive = small, poorly fitted or top-dose-only effect; inactive = no such curve, though single readings can be large or run the other way; note: potency is the fitted concentration of half-maximal effect; the source files actives as falling curves though it sought activators and does not explain the sign; nearly all actives have a fitted effect of over 65% in size; many hits overshoot -100%
Target sequence (P80244 whole entry, looked up): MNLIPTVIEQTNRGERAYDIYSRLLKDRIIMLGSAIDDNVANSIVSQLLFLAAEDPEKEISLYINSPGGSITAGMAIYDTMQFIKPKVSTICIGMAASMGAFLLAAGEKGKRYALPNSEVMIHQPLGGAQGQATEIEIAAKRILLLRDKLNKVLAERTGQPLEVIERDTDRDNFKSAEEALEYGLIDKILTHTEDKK
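ClpP 10 microg/mL final, pH 8 Tris/KCl buffer with BSA, glycerol, Tween-20; compound pinned in; FRET-FV substrate; RT 20 min; Ex320/Em430; ΔFRET vs ADEP 5.8 microM, DMSO, no enzyme.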
TRPML1 blocker: qHTS for Inhibitors of the Human Mucolipin Transient Receptor Potential 1 (TRPML1). AID 624415, 2012. 0.02% of 390,000 active. Mucolipin-1 (Homo sapiens), Q9GZU1. TRPML1-inducible cells, Ca2+ dye fluorescence, FDSS; hits give low values; inhibition of EC80 agonist-evoked calcium signal. activity change, negative = inhibition, % (no concentration beside the values); in the data active means activity change below about -50%; inconclusive means about -30% to -50%; inactive means above about -30%;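 note: stimulus is agonist 54-4 at its EC80 concentration; % is set by controls: 0 for no effect and ±100 for the full control effect; compound concentration not given in the record; the text of the record puts the active cut at -80%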
Target sequence (Q9GZU1 whole entry, looked up): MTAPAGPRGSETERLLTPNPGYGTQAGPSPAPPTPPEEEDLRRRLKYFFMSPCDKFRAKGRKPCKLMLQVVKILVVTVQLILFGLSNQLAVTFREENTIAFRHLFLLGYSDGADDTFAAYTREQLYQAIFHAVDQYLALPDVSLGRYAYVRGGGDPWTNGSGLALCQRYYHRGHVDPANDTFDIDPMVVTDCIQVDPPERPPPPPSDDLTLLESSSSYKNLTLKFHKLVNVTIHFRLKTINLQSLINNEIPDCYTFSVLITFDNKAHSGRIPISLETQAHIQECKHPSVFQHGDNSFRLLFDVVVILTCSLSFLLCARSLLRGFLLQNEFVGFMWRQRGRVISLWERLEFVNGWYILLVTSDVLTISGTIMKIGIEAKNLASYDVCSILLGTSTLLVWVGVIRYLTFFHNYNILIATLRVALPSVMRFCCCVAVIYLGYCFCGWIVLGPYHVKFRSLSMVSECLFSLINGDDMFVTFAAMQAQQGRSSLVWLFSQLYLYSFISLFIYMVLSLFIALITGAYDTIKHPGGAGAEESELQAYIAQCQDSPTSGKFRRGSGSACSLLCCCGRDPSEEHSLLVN
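Tet-induced TRPML1-DL cells loaded with Ca8 no-wash calcium dye were read kinetically on FDSS. Compound addition was followed by EC80 agonist 54-4 (4 uM final); inhibition was read over 110 s.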
TRPML1 ag: qHTS for Agonists of the Human Mucolipin Transient Receptor Potential 1 (TRPML1); AID 624414, 2012; Mucolipin-1 (Homo sapiens), Q9GZU1; 0.12% of 410,000 active; TRPML1-expressing cells, Ca2+ dye fluorescence, FDSS; host cell line not named in the record; reference of the full effect not given here; activation, % (test concentration not listed); in the data active = activation above about 50%; inconclusive = about 30% to 50%; inactive = below about 30%; note: 0% is about no effect; the text of the record puts the active cut at 80%
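Cells: TRPML1-DL, 1X Tet inducer, ~16 h at 37 degrees C/5% CO2. Dye: ABD Ca8 no-wash + quencher, 45-90 min RT. Read: 10 s baseline, compound add, 110 s agonist phase; 54-4 EC80 (4uM final), 110 s antagonist phase.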
An asterisk follows results filed as active; ? = inconclusive; / = not tested or not shown; & = joins results of further samples; [ ] = remark or other dose. Compounds were not picked by outcome. About 2.1% of those tested had a hit in this group.

The line under a structure holds: Menin MLL FP FL	gsp ag	gsp antag	ClpP mod	TRPML1 blocker	TRPML1 ag
> CC(C)(C)c1ccc(NC(=O)c2ccc(=O)[nH]n2)cc1
→ -0.4	-4%[15.4 µM]	1%	-21%	6	-1.3
> COc1cc2c(cc1OC)CN(C(=O)CSc1nc(C)cc(C)c1C#N)CC2
→ -1.7	15%	-8%	-3.5%	10	-0.7
> CCOc1ccccc1C(=O)OCC(=O)Nc1ccc(OC(F)F)cc1
→ -2.0	8%	-9%	-17%	-9	2.7
> CC1CC(C)CN(CCCNC(=O)Cc2c(C(=O)O)n(C)c3ccccc23)C1 (configuration not stated)
→ 3.1	0%	3%	-16%	5	0.3
> CCOC(=O)C1=C(C)NC(=S)NC1c1ccc(OCC(=O)N2CCCCCC2)cc1 (configuration not stated)
→ -3.4	-7%[15.4 µM]	0%	-0.8%	5	-1.0
> CC(C)COC(=O)C1[C@H]2C(=O)N(Cc3cccs3)C[C@]23C=C[C@H]1O3 (some centres not stated)
→ -0.5	-34%[inhibitor]	8%	-0.9%	-6	0.0
> COc1ccc2oc(=O)c(C(=O)NCc3cccnc3)cc2c1
→ -1.8	?	-4%	28µM*	16	-0.7
> CC(=O)Nc1ccc(N(C(=O)CNC(=O)c2ccco2)C(C(=O)NC2CCCC2)c2ccco2)cc1 (configuration not stated)
→ -2.9	-2%[15.4 µM]	/	/	-1	-0.3
> CC(=O)Nc1ccc(S(=O)(=O)Nc2nc3ccccc3nc2-n2ccc(=NC(=O)c3ccc(F)cc3)cc2)cc1
→ -3.5	3%[15.4 µM]	-17%	-2.6%	-27	-0.2
> O=C(Cn1cc(C(=O)C2CCCCC2)c2ccccc21)Nc1ccccc1Cl
→ /	/	/	-2.0%	-1	0.5
> FC(F)(F)c1cc(-c2ccccc2)nc(NCc2cccnc2)n1
→ -0.7	-3%	-16%	?	7	-0.2
> O=C(CN1C(=O)c2ccccc2C1=O)N1CCN(c2ccccc2)CC1
→ 0.9	13%	9%	-0.4%	1	0.8
> Cc1cc(=O)oc2cc(OCC(=O)NC3CCCCC3)ccc12
→ /	-5%[15.4 µM]	9%	-0.3%	9	-1.4
> CC(C)NC(=O)c1ccc(N(Cc2ccc(Cl)cc2)S(C)(=O)=O)cc1
→ 0.9	-9%[15.4 µM]	8%	0.0%	2	-0.6
> Cc1sc(C2C(C#N)=C(N)N(c3ccc(Cl)cc3)C3=C2C(=O)CCC3)cc1CN1CCOCC1 (configuration not stated)
→ /	/	/	-3.8%	9	-0.3
> CC(=O)Nc1ccc(S(=O)(=O)N2CCN(CC(=O)NC3CCCC3)CC2)cc1
→ -1.1	-22%	7%	-0.4%	3	-0.5
> COc1ccc(C(=O)COC(=O)c2ccc([N+](=O)[O-])s2)cc1OC
→ /	-1%	-6%	0.1%	19	0.5
> O=C(Nc1cccnc1)Nc1cccc([N+](=O)[O-])c1
→ -6.0	-4%[15.4 µM]	4%	0.0%	6	-0.3
> Cc1cn(-c2cc(NC(=O)c3ccc(C)c(NC(=O)c4cccc(-c5cn[nH]c(=O)c5)c4)c3)cc(C(F)(F)F)c2)cn1
→ 1.1	-7%	?	-5.0%	-1	0.4
> O=C(NNC(=O)c1ccco1)c1ccco1
→ /	17%	/	-3.1%	-9	-0.2
> Cc1[nH]c(C)c(S(=O)(=O)N(Cc2ccccc2)C(C)C)c1C(=O)N1CCCC1
→ 0.1	0%	13%	-1.4%	37	0.0
> CSCC[C@H](NC(=O)OC(C)(C)C)C(=O)N/N=C/c1c(C)[nH]c(=O)[nH]c1=O
→ 0.0	-46%[inhibitor]	13%	0.7%	12	0.8
> COc1ccc(/C(C)=N/NC(=O)C2C3CCCCC32)c(OC)c1 (configuration not stated)
→ 4.6	14%[15.4 µM]	0%	/	-7	0.2
> CCOC(=O)c1cc(NC(=O)c2ccc(Cl)cc2)c(=O)oc1-c1ccccc1
→ 0.0	-38%[inhibitor]	13%	-0.9%	33	-0.7
> O=S(=O)(c1ccc(Br)c2ccccc12)N1CCOCC1
→ -3.1	11%[15.4 µM]	3%	-0.8%	-12	1.4
> COc1cccc(CN2CCN(Cc3ccc(O)c(OC)c3)CC2CCO)c1 (configuration not stated)
→ -2.4	1%[15.4 µM]	-5%	0.1%	12	-1.1
> COc1cccc(C(C(=O)NCc2ccco2)N(Cc2ccco2)C(=O)Cn2nnc3ccccc32)c1 (configuration not stated)
→ 9.7	-1%	-11%	3.2%	23	1.1
> CCOc1ccc(C(=O)Nc2c3c(nn2-c2ccccc2)CS(=O)(=O)C3)cc1
→ /	12%	-2%	3.6%	15	0.6
> CC(C)(C)OC(=O)NCc1ccc(CNC(=O)c2[nH]cnc2C(=O)NC2CCN(C(=O)OC(C)(C)C)CC2)cc1
→ /	/	2%	2.4%	3	1.6
> Cc1ccc2c(Cl)cc(Cl)c(OCC(=O)NC3CCS(=O)(=O)C3)c2n1 (configuration not stated)
→ -1.1	-8%	-1%	/	14	0.4
> CCCNC(=O)CNC(=O)c1ccc(C#N)cc1
→ /	/	16%	1.7%	5	-0.5
> Brc1ccc(-c2nnc(-c3ccccc3)c(N3CCSCC3)n2)cc1
→ 1.0	?	?	1.9%	33	1.0
> C=CCN1CCc2nc(N)sc2CC1
→ 4.1&-0.8&4.0	/	13%	-3.6%	5	0.2
> Cc1cccnc1NC(=O)c1ccc(OCc2c(C)noc2C)cc1
→ /	?	-3%	-0.3%	-17	0.1
> CCCOc1ccc2oc(=O)c3c(c2c1)CCCN3C(=O)CN1CCCC(C(=O)OCC)C1 (configuration not stated)
→ -2.7	-1%	-19%	-29%	33	1.4
> c1ccc(CSc2nnc3ccc(-c4cccs4)nn23)nc1
→ 1.4	-11%	-2%	-4.5%	/	/
> CC(=O)N1CCc2c(sc3c2c(=O)n(-c2cc(Cl)ccc2C)c(=O)n3Cc2ccccc2F)C1
→ /	/	/	-4.6%	47	-0.6
> COC(=O)c1ccc(N=CC2=C(O)CC(c3ccccc3)CC2=O)cc1 (configuration not stated)
→ 2.1	0%[15.4 µM]	11%	-0.3%	11	-0.2
> CCCCC(=O)c1ccc(O)cc1
→ 0.8	?	1%	0.0%	-4	0.6
> COc1ccccc1-c1cc(C(=O)NCc2ccccc2)no1
→ 0.5	20%	-8%	-11%	-6	-0.2
> Cc1cc(C)nc(NNC2=CC(=O)CC(C)(C)C2)n1
→ -16	-1%	7%	/	-1	-0.5
> O=C(COc1ccccc1N1C(=O)c2ccccc2C1=O)c1ccc(Cl)cc1
→ 5.5	6%	-17%	-0.3%	-3	-0.4
> COc1ccccc1NC(=S)N(CCc1c(C)[nH]c2ccccc12)Cc1cccs1
→ 14	-6%	-11%	-3.3%	51	0.7
> CN(C)CCCN(C(=O)c1ccc(S(=O)(=O)N(C)Cc2ccccc2)cc1)c1nc2cc3c(cc2s1)OCO3
→ 3.0	2%	6%	-1.1%	-1	-0.3
> COc1ccccc1N1CCN(C(=O)CN(Cc2ccc(Cl)cc2)S(C)(=O)=O)CC1
→ -1.7	-53%[inhibitor]	-7%	-2.5%	54	4.1
> O=C(CCc1ccccc1)NC(=S)Nc1ccc2c(c1)C(=O)OC2
→ 1.3	44%	18%	1.2%	-13	2.6
> OC(CSc1c(Cl)cccc1Cl)CN1CCN(c2ccc(F)cc2)CC1 (configuration not stated)
→ 3.9	2%	?	-3.0%	-10	-0.2
> Cn1c(=O)c2sccc2n2c(CCCC(=O)N3CCCCC3)nnc12
→ /	?	-4%	-19%	15	4.2
> Cn1nnnc1P(=O)(c1ccccc1)c1ccccc1
→ -0.3	10%	14%	-0.4%	17	0.1
> Cc1ccc(CNS(=O)(=O)c2ccc3c(c2)NC(=O)C(C)S3)cc1 (configuration not stated)
→ /	2%	1%	-1.0%	9	1.5
> C/C(=N/NC(=O)c1ccncc1)c1ccccc1
→ -3.2	8%[15.4 µM]	7%	-0.3%	3	0.1
> O=C(CSc1cccc[n+]1[O-])Nc1ccccc1C(F)(F)F
→ /	25%	9%	/	-4	2.5
> CCOC(=O)c1c(C)nn(-c2ccc(NC(=O)c3c(C)noc3C)cc2)c1C
→ -14	-28%[15.4 µM]	12%	/	10	0.3
> O=C(CN1C2CCCC1CC(NC(=O)c1ccccc1)C2)Nc1ccccc1C(F)(F)F (configuration not stated)
→ 4.3	-27%	?	/	40	2.2
> CC(C)N(Cc1nc(-c2ccc(Cl)cc2)no1)C(=O)c1ccco1
→ /	/	/	1.0%	-5	0.2
> Cc1cccc(Nc2nc(N)c([N+](=O)[O-])c(N3CC(C)CC(C)C3)n2)c1 (configuration not stated)
→ 3.7	-3%[15.4 µM]	-15%	1.1%	35	0.8
> CCCCN(c1ccccc1)S(=O)(=O)c1cccc2cccnc12
→ 3.8	-11%	-1%	1.2%	36	2.3
> O=C(Nc1cccnc1)c1ccc(-c2ccc(Cl)cc2)o1
→ -5.0	30%	3%	/	-7	0.0
> CC(C)(C)[C@H]1C=C(C(=O)NCc2nc3ccccc3[nH]2)O[C@@H](OCCCCO)C1
→ -1.1	/	4%	0.9%	6	3.3
> O=C(OCc1ccccc1)N1CCC2CC1c1cc(N3CCCCC3)ccc12 (configuration not stated)
→ /	/	-14%	-10%	2	0.5

Further structures follow:
The line under a structure holds: Menin MLL FP FL	gsp ag	gsp antag	ClpP mod	TRPML1 blocker	TRPML1 ag
> CCOc1ccccc1C(=O)NC(C(=O)Nc1ccccc1N1CCOCC1)C(C)C (configuration not stated)
→ 3.9	-6%	-13%	0.1%	10	0.9
> O=C(c1ccc(F)cc1)N1CCC(C(=O)N2CCN(Cc3ccc4c(c3)OCO4)CC2)CC1
→ /	-46%[inhibitor]	8%	-1.9%	8	0.6
> O=C(Nc1ccc2c(c1)Cc1ccccc1-2)c1cccnc1
→ -0.1	-1%	-6%	1.2%	29	0.1
> O=C(NC1CC1)c1ccc(CSCc2ccccc2Cl)o1
→ /	-4%	-16%	0.5%	-8	1.7
> O=C(Cc1ccccc1)Nc1nnc(-c2cccs2)s1
→ 5.7	18%	11%	20µM*	-1	1.6
> COc1ccc(-c2nc3scc(CCNS(=O)(=O)c4cccc(C(C)=O)c4)n3n2)cc1
→ /	/	/	-0.5%	-9	1.3
> COC(=O)c1cc(NC(=O)c2cc(C(C)(C)C)nn2Cc2ccc(F)cc2)ccc1N1CCOCC1
→ 5.1	0%	-13%	-11%	9	-0.3
> COc1ccccc1N1CCN(C(=O)c2cc3c(=O)n4ccccc4nc3s2)CC1
→ /	?	8%	4.2%	5	0.3
